# Screening results (PubChem)
# RanGTP-Imp inh: disruptors of Ran-importin-beta complex formation – biochemical, FRET, CFP-Ran, YFP-importin-beta, homogeneous, primary screen; inhibition, % (test concentration not listed); cell-free CFP-Ran/YFP-importin-beta FRET ratio; AID 2216; 300,000 compounds, 1.1% hits;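 active = most replicates above 15%; inconclusive = exactly half above 15%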;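 note: 0% = DMSO wells and 100% = Ran loaded with GDP instead of GTP; wells of about 40 µL received 100 nL stock; the first replicate is given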
# LANA-H2B inh: blocks KSHV LANA binding to histone H2A/H2B; cell-free LANA-H2A/H2B peptide, fluorescence polarization; 320,000 compounds, 0.6% hits; inhibition, % (concentration not given with the values); in the data active = inhibition mostly above about 10%, no sharp cut-off; inactive = mostly below about 6.7%;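 note: stock transfer was 7.5 nL into about 10 µL; 0% = median of vehicle wells and 100% = median of positive control wells; one replicate is shown; the record names a cut of 25% in any replicate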
# Target sequence (Q9QR71 whole entry, looked up): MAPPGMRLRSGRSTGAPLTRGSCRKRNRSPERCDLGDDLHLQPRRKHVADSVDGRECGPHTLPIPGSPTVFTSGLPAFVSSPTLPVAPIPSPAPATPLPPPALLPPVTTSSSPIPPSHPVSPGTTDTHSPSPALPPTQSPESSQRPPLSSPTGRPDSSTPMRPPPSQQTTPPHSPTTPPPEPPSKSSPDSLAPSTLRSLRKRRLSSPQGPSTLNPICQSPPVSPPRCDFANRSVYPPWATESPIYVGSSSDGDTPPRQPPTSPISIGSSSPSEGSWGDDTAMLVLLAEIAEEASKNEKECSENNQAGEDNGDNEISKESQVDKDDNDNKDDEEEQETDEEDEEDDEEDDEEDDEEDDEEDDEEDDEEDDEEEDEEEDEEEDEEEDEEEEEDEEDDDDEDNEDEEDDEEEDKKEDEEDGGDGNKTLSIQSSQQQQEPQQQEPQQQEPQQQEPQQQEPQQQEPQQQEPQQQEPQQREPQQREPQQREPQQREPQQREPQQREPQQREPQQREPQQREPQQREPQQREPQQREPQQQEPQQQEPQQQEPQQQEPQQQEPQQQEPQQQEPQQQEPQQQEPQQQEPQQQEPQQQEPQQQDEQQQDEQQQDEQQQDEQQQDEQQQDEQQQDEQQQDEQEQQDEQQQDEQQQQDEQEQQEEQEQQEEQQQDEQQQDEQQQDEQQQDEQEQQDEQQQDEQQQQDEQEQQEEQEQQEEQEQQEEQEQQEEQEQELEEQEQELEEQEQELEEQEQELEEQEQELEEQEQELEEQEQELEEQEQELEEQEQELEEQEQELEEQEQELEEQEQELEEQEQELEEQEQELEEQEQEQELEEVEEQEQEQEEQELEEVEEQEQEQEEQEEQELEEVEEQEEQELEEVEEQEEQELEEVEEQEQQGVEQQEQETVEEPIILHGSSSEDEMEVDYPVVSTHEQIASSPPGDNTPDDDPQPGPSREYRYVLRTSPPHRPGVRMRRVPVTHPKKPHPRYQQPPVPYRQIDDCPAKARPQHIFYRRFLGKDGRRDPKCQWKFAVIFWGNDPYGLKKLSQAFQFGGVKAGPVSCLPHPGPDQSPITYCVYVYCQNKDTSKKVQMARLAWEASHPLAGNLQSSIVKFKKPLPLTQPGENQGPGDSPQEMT
# Beta cell apopt: blocks beta cell apoptosis; INS-1E cytokine-induced death, ATP luminescence, 48 h; percent of positive-control rescue, neutral wells zero; protection from apoptosis, % (no concentration beside the values); 300,000 compounds, 0.8% hits; AID 435005;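 active = all replicates at 75% or more, or half of them and the mean; inconclusive = half reach 75% but not the mean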;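 note: 0% = cytokine-treated negative control wells and 100% = positive control rescue; higher means more ATP so stronger rescue from cytokine killing; wells of about 40 µL received 100 nL stock; the first replicate is given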
# A1 inh: inhibitors of the anti-apoptotic protein A1, read as caspase activation; MEF A1-2A-BIM cells, Caspase-Glo 3/7 luminescence, 3 h; percent of clofoctol response, vehicle zero; caspase activation, % (no concentration beside the values); 330,000 compounds, 0.066% hits; AID 2462;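 active = over half of replicate activation scores above 10%, or exactly half above 10 with the replicate mean above 10; inconclusive = replicate mean below 10 yet half the replicates above 10; inactive = over half of replicates below 10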;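 note: wells of about 30 µL received 50 nL stock; many hits fall short of the cut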
# Vif A3G: HIV-1 Vif–A3G interaction blockers – biochemical, TR-FRET, GST-Vif 1-94, biotin-A3G peptide, dose response retest, primary screen (AID 1117319); inhibition, %; hits with a dose series show IC50 in µM; 260,000 compounds, 0.57% hits; TR-FRET GST-Vif / biotin-A3G peptide binding; higher % means a stronger effect; test concentration not given here; strong numbers were not always called active;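 active = above the screen mean plus three standard deviations and confirmed in dose response; inconclusive = results disagree or hit not tested in dose response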;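 note: Vif residues 1-94 fused to GST binding biotinylated APOBEC3G peptide 110-148; 0% = full assay without inhibitor and 100% = GST in place of GST-Vif; retest series ran down from 100 µM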
# Calb FLC: C. albicans growth modulation with fluconazole. C. albicans CaCi-2 (fluconazole-resistant clinical isolate) + fluconazole, Alamar Blue growth, 48 h. 300,000 compounds, 0.57% hits. growth inhibition, % (test concentration not listed). AID 1979;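 active = most replicates above 75%; inconclusive = exactly half above 75%; inactive = most below 75%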;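 note: all wells also contain fluconazole at 8 µg/ml as a sub-toxic cotreatment; 0% = median of DMSO wells and 100% = median of geldanamycin control wells; wells of about 8 µL received 7.5 nL stock; the first replicate is given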
# T cruzi repl: T. cruzi replication inhibition. T. cruzi beta-gal in NIH3T3, luminescence, 90 h. inhibition, % (test concentration not listed). 300,000 compounds, 1.4% hits. AID 1885;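 active = mean inhibition across valid replicates above about 55%, limit read from the data; inconclusive = mean below that limit but half or more replicates reach it; inactive = mean below it, under half of replicates reach it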;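 note: signal also drops with host cell toxicity which is not excluded here; 0% = plate median of DMSO wells and 100% = zero luminescence signal; higher percent means less beta-gal luminescence so fewer parasites; stock transfer was 50 nL into about 50 µL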
# AF4-AF9 inh: MLL-AF4/AF9 protein interaction inhibition; inhibition, % at 10 µM; AID 651704; AlphaScreen, biotin-AF4 peptide binding to FLAG-AF9; 350,000 compounds, 0.47% hits; P42568;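 active = every replicate reaching a set inhibition limit, whatever the replicate mean, cut at about 25% in these data; inconclusive = mean inhibition reaches that limit but some replicates miss it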;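 note: 0% = plate neutral control median and 100% = total signal loss; the record names both 10 and 1 µM as test concentration; the first replicate is given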
# Numbers without * were called inactive; ? = inconclusive; . = no result given; & = joins results of further samples. Not a hit list; 4.3% or so of the library scored in one or more.
# Sequence of screens: RanGTP-Imp inh	LANA-H2B inh	Beta cell apopt	A1 inh	Vif A3G	Calb FLC	T cruzi repl	AF4-AF9 inh
CC(C)C(C)NC(=O)CN1C(=O)NC(C)(c2ccc3ccccc3c2)C1=O (stereo not given)
 : 1.8	5.3	-4.2	1.5	-1.5%	1.6	11.9	0.2
Cc1cccc(NC(=O)CSc2nnc(-c3ccc(S(=O)(=O)N4CCOCC4)cc3)n2C)c1
 : -2.9	5.2	-1.2	0.0	-42.3%	-7.7	3.3	.
COc1cc(OC)cc(C(=O)Nc2ccc3c(c2)CCCN3C(=O)c2cccs2)c1
 : 3.3	-2.9	12.4	0.5	.	6.9	21.1	4.5
CCOc1cc(CNCc2ccccc2)ccc1OCC(=O)NC1CCCCC1
 : -2.5	3.9	-6.3	1.0	.	9.2	25.1	3.7
COc1cc(NS(=O)(=O)c2ccc(N=Cc3c(C)[nH]n(-c4ccccc4)c3=O)cc2)nc(OC)n1
 : -1.9	0.7	1.3	0.2	19.4%	2.4	-9.9	.
CC(=O)Nc1ccc(S(=O)(=O)NCCc2cc3ccc(C)c(C)c3[nH]c2=O)cc1
 : -0.4	3.2	-5.3	-0.1	.	-10.8	-4.1	-14.4
CCN(CC(=O)Nc1ccccc1C(F)(F)F)C(=O)c1cc(S(=O)(=O)N(C)C)ccc1N1CCCC1
 : 5.7	-9.2	-0.8	0.8	.	0.4	4.5	-1.4
Cc1cc2c(ccc3[nH]onc32)n1
 : -5.0	8.6	-11.0	0.3	26.9%	-1.7	-3.7	.
N#CCOC(=O)[C@H](Cc1c[nH]c2ccccc12)NS(=O)(=O)c1ccc(Cl)cc1
 : -2.3	4.8	-2.2	-0.7	-4.3%	0.0	-5.0	0.5
CCOc1ccc(NC(=O)c2ccc(NC(=O)COC(=O)c3ccc(NC(=O)CC#N)cc3)cc2)cc1
 : -3.6	1.0	0.6	-0.5	.	3.8	16.6	-2.7
CCOc1ccc(NCc2cc3cc(OC)ccc3[nH]c2=O)cc1
 : -13.7	1.5	0.0	-0.1	?	6.9	2.4	8.2
Fc1cccc2sc(Nc3nc4cc5c(cc4s3)OCCO5)nc12
 : -1.6	0.5	3.3	-5.7	13.8%	-3.9	11.4	.
O=C(CCCc1ccccc1)NCCCN1CCOCC1
 : 1.8	-0.2	-0.4	0.8	15.8%	-9.4	-3.5	.
COc1cc2c(cc1NC(=O)CCC(=O)O)oc1ccccc12
 : 3.9	-0.9	-6.7	0.1	.	10.2	-1.4	-4.9
Cc1ccc(C(=O)N(CC(=O)NC2CCCCC2)c2ccccc2F)s1
 : 0.4	3.1	2.5	-0.4	-5.1%	-4.5	-5.0	0.1
O=C(Nc1ccc(NC(=O)c2ccc(Cl)cc2Cl)cc1)c1cccs1
 : 1.5	8.3	3.0	1.0	.	-3.2	-9.5	6.0
O=C(NCc1ccc2c(c1)OCO2)C1CC(c2ccc(Cl)cc2)=NO1 (stereo not given)
 : 2.3	-6.4	-0.3	0.1	-1.2%	-10.9	3.4	.
Cc1ccc2[nH]c3c(c2c1)CCC3=O
 : 4.5	6.4	-4.4	0.6	-1.3%	5.0	1.6	.
COc1cc2c(cc1NC(=O)Cc1ccc(C)cc1)oc1ccccc12
 : 3.3	-0.8	2.4	0.4	-10.6%	7.5	26.3	-3.4
COc1ccc(OC)c(NC(=O)CSc2nc3ccccc3c(=O)n2CC2CCCO2)c1 (stereo not given)
 : -2.3	0.9	8.4	-0.5	41.9%	-7.6	-16.2	3.8
CCC(C)(C)n1nnnc1C(c1cccnc1)N1CCN(c2cccc(C(F)(F)F)c2)CC1 (stereo not given)
 : 1.4	1.0	11.0	1.5	0.4%&12.7%	-1.5	61.6*	.
O=C(CNC(=S)NC(=O)c1ccco1)c1ccccc1
 : 3.7	-1.5	0.1	0.7	-5.8%	1.1	-7.8	.
CCCCN(CCCC)CCNC(=O)CN1C(=O)COc2ccc(S(=O)(=O)N3CCC(C)CC3)cc21
 : -3.1	3.1	-6.1	1.1	.	-1.3	7.7	2.3
COc1ccc2c(-c3cccnc3)cc(=O)[nH]c2c1
 : 0.1	-2.2	2.1	-0.3	-0.6%	-4.4	-0.4	.
O=C(c1ccc(S(=O)(=O)N2CCCCCC2)cc1)N(c1ccccn1)C1CCCCC1
 : 4.1	0.8	.	0.6	1.4%	-16.4	16.5	-0.8
COc1ccc(C2(C)NC(=O)N(CC(=O)Nc3ccc4c(c3)OCO4)C2=O)cc1OC (stereo not given)
 : 5.8	-0.3	-1.1	-0.1	32.8%	0.5	-11.4	.
COc1ccc(OC)c(C2C(C#N)=C(N)Oc3cc(C)[nH]c(=O)c32)c1 (stereo not given)
 : -2.5	-187.2	0.1	-0.5	-3.4%&-3.0%	-4.9	-7.9	.
NC1=NC(=O)/C(=C/c2cccc(-c3ccc(S(N)(=O)=O)cc3)c2)S1
 : 0.1	4.7	-8.4	0.8	.	-6.6	-25.7	-8.1
Cc1cccc(NC(=O)NNC(=O)c2cc(-c3ccccc3Cl)nc3ccccc23)c1
 : 6.5	-11.5	0.4	2.5	15.4%	?	.	.
O=C(O)CC1c2ccccc2CCN1S(=O)(=O)c1cccs1 (stereo not given)
 : 3.2	1.2	-9.2	1.2	.	0.7	-18.5	-2.8

# Additional structures:
# Sequence of screens: RanGTP-Imp inh	LANA-H2B inh	Beta cell apopt	A1 inh	Vif A3G	Calb FLC	T cruzi repl	AF4-AF9 inh
O=C(CC1C(=O)NCCN1C/C=C/c1ccccc1)NCCc1ccncc1 (stereo not given)
 : -4.8	4.9	0.3	-0.2	2.8%	16.4	-2.8	-0.5
Cc1nnc(SCCn2c(Br)nc3c2c(=O)[nH]c(=O)n3C)s1
 : -0.6	3.7	-1.0	-0.4	?	-2.7	-12.0	.
CC(=O)N1CCN(c2nc3ccc([N+](=O)[O-])cc3s2)CC1
 : -3.9	-1.8	5.8	-1.4	.	47.0	-31.8	2.3
CCNC(=O)CCn1nc(-c2ccc(Cl)cc2)c2ccccc2c1=O
 : 2.5	-1.0	-3.9	1.6	?	5.0	-5.2	.
COc1cc(C(=O)OCC(=O)NC2CC2)ccc1OCCC(C)C
 : .	-2.7	-0.8	-5.8	.	.	.	1.2
CC12COC3(C(=O)Nc4ccc([N+](=O)[O-])cc4)CC1CCC32C (stereo not given)
 : -1.4	1.4	-6.2	0.8	.	-1.0	6.1	0.9
COC(=O)c1c(N)n(-c2ccc(NC(C)=O)cc2)c2nc3ccccc3nc12
 : 7.4	1.8	5.3	0.7	3.6%	-2.4	-4.2	.
C=C1C(C(=O)Nc2ccc(OCC)cc2)C1C(=O)Nc1ccc(OCC)cc1 (stereo not given)
 : 2.0	-2.7	-2.7	0.6	-1.5%	-2.2	6.7	1.9
O=C(CSc1ncnc2c1sc1ccccc12)Nc1ccc(Br)cc1
 : -3.8	4.6	0.7	0.0	.	-0.7	-5.2	0.1
Cc1ccsc1C(=O)NNC(=O)COc1ccc(Br)cc1
 : .	0.9	-0.1	-1.6	.	.	.	2.0
CC(=O)Cc1nsc(NC(=O)c2ccc(-c3ccc(Cl)c(Cl)c3)o2)n1
 : -1.6	1.1	5.8	0.4	-6.8%	21.1	-4.9	-9.8
O=C(Nc1ccc(N2CCCCCC2)cc1)c1cccc(S(=O)(=O)N2CCOCC2)c1
 : .	2.1	18.1	-0.4	.	.	.	15.4
O=C(CSc1ccc(-c2cccs2)nn1)N1CCCCC1
 : -2.3	9.1	7.3	-4.2	-322.8%	-6.2	11.6	.
Cc1ncoc1C(=O)NC1CC(C)(C)Cc2c1cnn2-c1ccccc1 (stereo not given)
 : 0.1	7.4	1.2	0.6	.	-8.6	3.7	-0.7
Cc1noc(C)c1NC(=O)N(C)C[C@H]1Oc2ccc(NS(=O)(=O)c3ccc(F)cc3)cc2C(=O)N([C@H](C)CO)C[C@@H]1C
 : .	2.9	-8.7	1.0	.	.	.	-0.6&-0.3
C/C=C/c1ccc(OCCCCOc2ccc(OC)cc2)c(OC)c1
 : 1.9	1.9	-3.4	-0.7	29.6%	-12.0	-16.1	.
S=C(NCc1cccs1)Nc1cccc(Cl)c1Cl
 : 1.4	2.7	5.9	0.0	.	-0.7	-4.0	.
O=C(COC(=O)c1cc(Br)ccc1Cl)NC1CCCC1
 : 0.0	1.4	-0.2	0.2	9.4%	-5.2	-4.1	-1.4
CCC(C)[C@H](NC(=O)NCc1ccco1)C(=O)O (stereo not given in full)
 : -0.2	1.4	-3.8	0.5	-1.1%	-0.1	-10.5	3.4
CCOc1ccccc1NC(=O)/C(C#N)=C/c1c(C)nn(-c2ccc(F)cc2)c1Cl
 : -0.3	5.0	12.7	0.3	2.4%	-1.7	-9.1	1.5
O=C(CCC(=O)N1CCOc2ccccc21)Nc1ccccc1Br
 : 3.0	-3.9	-1.0	1.0	.	-6.5	0.9	-2.3
CCOc1cc(C2Nc3ccccc3NC3=C2C(=O)CC(C)(C)C3)ccc1O (stereo not given)
 : -0.5	-0.8	1.0	-0.2	.	5.5	0.1	5.7
CCOC(=O)C1CCCN(C(=S)Nc2cccc(Cl)c2)C1 (stereo not given)
 : -4.7	-1.7	-6.5	0.0	2.8%	13.1	-18.5	.
CCN(c1ccccc1)S(=O)(=O)c1cc(C(=O)O)ccc1C
 : 3.7	0.0	0.8	0.2	25.8%	-12.0	0.6	.
Cn1c(-c2cccc([N+](=O)[O-])c2)cnc1NCc1ccc(C#N)cc1
 : -1.6	0.4	0.3	0.0	-1.3%	2.9	5.5	10.7
CC(C)N(C(=O)Cn1cc(SCC(N)=O)c2ccccc21)C(C)C
 : -2.2	-2.1	-5.3	-0.2	8.5%	14.0	-0.7	0.6
CCOC(=O)c1[nH]c2ccccc2c1NC(=O)C(C)(C)C
 : 1.4	1.6	-5.1	0.5	4.6%	6.5	-2.3	-3.8

# Compounds shown so far that have an aryl thioether with sulfur outside any ring (6):
# Sequence of screens: RanGTP-Imp inh	LANA-H2B inh	Beta cell apopt	A1 inh	Vif A3G	Calb FLC	T cruzi repl	AF4-AF9 inh
Cc1cccc(NC(=O)CSc2nnc(-c3ccc(S(=O)(=O)N4CCOCC4)cc3)n2C)c1
 : -2.9	5.2	-1.2	0.0	-42.3%	-7.7	3.3	.
COc1ccc(OC)c(NC(=O)CSc2nc3ccccc3c(=O)n2CC2CCCO2)c1 (stereo not given)
 : -2.3	0.9	8.4	-0.5	41.9%	-7.6	-16.2	3.8
Cc1nnc(SCCn2c(Br)nc3c2c(=O)[nH]c(=O)n3C)s1
 : -0.6	3.7	-1.0	-0.4	?	-2.7	-12.0	.
O=C(CSc1ncnc2c1sc1ccccc12)Nc1ccc(Br)cc1
 : -3.8	4.6	0.7	0.0	.	-0.7	-5.2	0.1
O=C(CSc1ccc(-c2cccs2)nn1)N1CCCCC1
 : -2.3	9.1	7.3	-4.2	-322.8%	-6.2	11.6	.
CC(C)N(C(=O)Cn1cc(SCC(N)=O)c2ccccc21)C(C)C
 : -2.2	-2.1	-5.3	-0.2	8.5%	14.0	-0.7	0.6
